Screening data as filed in PubChem.
Cruzain Triton: cruzain (T. cruzi) inhibition with detergent | AID 1478 | purified cruzain, Z-FR-AMC fluorescence, 0.01% Triton | P25779 | hit rate 0.43% among 200,000 | Potency, µM, for the others: max response, negative = inhibition, most hits filed as inhibitors; active = well fitted curve in the direction sought with a large enough effect; inconclusive = small, poorly fitted or top-dose-only effect, or another doubt; inactive = no such curve, though single readings can be large; an effect the other way counts as inactive or inconclusive;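 also: plate controls were neutral wells for no effect and buffer without enzyme for full effect; nearly all actives have a fitted effect of over 40% in size; top concentration of the series not given in the record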
Target sequence (P25779 123-467 limits assumed): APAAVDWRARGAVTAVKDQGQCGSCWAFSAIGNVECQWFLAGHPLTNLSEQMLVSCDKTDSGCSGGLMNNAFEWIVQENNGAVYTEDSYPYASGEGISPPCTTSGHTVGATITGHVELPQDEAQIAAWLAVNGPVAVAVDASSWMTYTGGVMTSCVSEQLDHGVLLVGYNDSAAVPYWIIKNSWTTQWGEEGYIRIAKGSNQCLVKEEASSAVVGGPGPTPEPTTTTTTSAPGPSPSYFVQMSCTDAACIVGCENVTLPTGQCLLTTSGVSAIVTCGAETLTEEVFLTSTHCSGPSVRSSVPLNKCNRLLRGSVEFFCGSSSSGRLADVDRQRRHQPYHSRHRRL
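Detergent-containing arm of a paired screen for aggregation-based inhibition: 0.01% Triton X-100 present. Cruzain at 1.5 nM cleaved 2 uM Z-FR-AMC at pH 5.5 with 5 mM DTT; AMC fluorescence gain over 60 s measured activity.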
RE007 growth inh: less growth of the S. pombe RE007 Vpr strain. S. pombe RE007 Vpr strain, BacTiter-Glo ATP luminescence, 24 h; control for the full effect not named in the record. Potency, µM (doses to about 92.2 µM), without a hit: top-dose activity change, negative = less growth. hit rate 0.21% among 360,000. AID 651644; active = well fitted falling curve with a large enough effect; inconclusive = small, poorly fitted or top-dose-only effect; inactive = no such curve, though single readings can be large or run the other way;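 also: % is scaled to controls: 0 for no effect and ±100 for the full control effect; nearly all actives have a fitted effect of over 50% in size; the assay follows cell death caused by Vpr and the record does not say whether a fall means rescue or toxicity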
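Fission yeast RE007 carrying one integrated HIV-1 vpr copy, seeded at OD 0.01 in PMG+AL medium with 23 nL pinned compound. Grown 24 h at 30 degrees; viability read by BacTiter-Glo luminescence after 5 min.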
2A StopGo: lowers the luciferase signal of an FMDV 2A StopGo reporter; human cells with a luciferase reporter of 2A StopGo recoding; control for the full effect not named in the record; Potency, µM (top dose mostly 57.9 µM), for inactives: at the highest dose signal change, negative = less light; hit rate 1.2% among 410,000; AID 1159524; active = well fitted falling curve with a large enough effect; inconclusive = small, poorly fitted or top-dose-only effect; inactive = no such curve, though single readings can be large or run the other way; tested in HEK293T cells; also: % is scaled to controls: 0 for no effect and ±100 for the full control effect; nearly all actives have a fitted effect of over 45% in size; luciferase light after 4 h
Lassa entry inh: blocks Lassa virus binding to or entry into cells; hit rate 1.2% among 300,000; Potency, µM (top dose mostly 37.9 µM), for inactives: at the top dose activity change, negative = inhibition, most hits filed as inhibitors; Lassa virus pseudotype entry inhibition, cell reporter; control for the full effect not named in the record; AID 540256; active means well fitted inhibition curve with a large enough effect; inconclusive means small, poorly fitted or top-dose-only effect, or effect the other way; inactive means flat fitted curve, though single readings scatter; tested in HEK293 cells; also: % is scaled to controls: 0 for no effect and ±100 for the full control effect; nearly all actives have a fitted effect of over 50% in size; luciferase read-out
MARV entry inh: Marburg virus entry inhibition; Marburg virus pseudotyped entry inhibition, cell reporter; control for the full effect not named in the record; about a third of the inactives were read at about 46 µM; Potency, µM (doses to about 37.8 µM), without a hit: at the top dose activity change, negative = inhibition, actives largely listed as inhibitors; hit rate 1.8% among 300,000; AID 540276; active = well fitted inhibition curve with a large enough effect; inconclusive = small, poorly fitted or top-dose-only effect, or effect the other way; inactive = flat fitted curve, though single readings scatter; tested in HEK293 cells; about a fifth of its hits are not listed in these tables; also: % is scaled to controls: 0 for no effect and ±100 for the full control effect; luciferase read-out
Cruzain noTriton: cruzain (T. cruzi) inhibition without detergent | AID 1476 | P25779 | purified cruzain, Z-FR-AMC fluorescence, no detergent | Potency, µM, for inactives: max response, negative = inhibition, actives largely listed as inhibitors | hit rate 2.3% among 200,000; active = well fitted curve in the direction sought with a large enough effect; inconclusive = small, poorly fitted or top-dose-only effect, or another doubt; inactive = no such curve, though single readings can be large; an effect the other way counts as inactive or inconclusive;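 also: plate controls were enzyme without inhibitor for no effect and buffer without enzyme for full effect; nearly all actives have a fitted effect of over 40% in size; top concentration of the series not given in the record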
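Detergent-free condition (0.00005% Triton X-100) in acetate buffer pH 5.5 with DTT. 1.5 nM enzyme and compound were pre-mixed 15 min, then 2 uM Z-FR-AMC substrate added; reaction progress from fluorescence change between first and third reads (60 s).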
SARS PLpro yeast: SARS-CoV PLP inhibition in yeast | S. cerevisiae expressing SARS-CoV PLpro, growth rescue; control for the full effect not named in the record | Potency, µM (series often up to 32.9 µM), without a hit: at the highest dose activity, positive = growth rescue | hit rate 0.19% among 330,000 | AID 485353; also: 0% is about no effect; nearly all actives have a fitted effect of over 55% in size; growth read by luminescence after 48 h
NS1 function inh: influenza NS1 inhibition; Potency, µM (doses to about 46.1 µM), for the others: at the top dose activity, positive = more growth; hit rate 0.4% among 270,000; S. cerevisiae slowed by influenza A NS1, growth recovery by OD600; also: actives are rising curves; nearly all actives have a fitted effect of over 50% in size
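Compounds were scored for reversing the slow growth caused by influenza A NS1 in S. cerevisiae, measured by optical density at 600 nm. Assay medium contained 2% galactose at pH 6.0; NS1-free yeast of the same strain were the positive control.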
* = called active by the depositor; ? = inconclusive; / = no result given; & = joins results of further samples; [ ] = another dose, or the depositor's remark. Unless noted, calls follow the shape of the dose curve; as a rule, active means well fitted rising curve with a large enough effect; inconclusive means small, poorly fitted or top-dose-only effect; inactive means no such curve, though single readings can be large or run the other way. Potency is read from the fitted curve at half-maximal effect.

Order of values: Cruzain Triton	RE007 growth inh	2A StopGo	Lassa entry inh	MARV entry inh	Cruzain noTriton	SARS PLpro yeast	NS1 function inh
> CC(=O)Nc1ccc(S(=O)(=O)N2CCC(C(=O)N[C@@H](C)C(=O)NC3CCCC3)CC2)cc1
 : /	5%	18%	/	/	/	?	-5%
> O=C(NCc1cccnc1)C1CCN(S(=O)(=O)c2cccs2)CC1
 : 3.8%	-10%	11%	4%	25%&25%	-4%	-1%	-4%
> C/C(=N/NC(=O)c1ccco1)c1cccc(NC(=O)c2ccc(C)s2)c1
 : -3.7%	-14%	24%	-39%	-39%	-8%	-27%	-26%
> COc1ccc(CNC(=O)C(=O)N2CCC3(CC2)OCCN3S(=O)(=O)c2ccc(C)cc2)cc1
 : /	18%	-5%	-20%[46.1 µM]	20%	/	4%	/
> CC1CCCCN1c1nnc(N)s1 (stereo not drawn)
 : -3.7%	7%	13%	0%	2%	-5%	-30%	-61%
> COc1ccc(NS(=O)(=O)c2cccc(C(=O)N(C)Cc3ccc(SC)cc3)c2)cc1
 : /	6%	49%[activator]	?	?	/	4%	/
> COc1cc(C(=O)Nc2cc(C(F)(F)F)ccc2N2CCOCC2)ccc1OCC(=O)N1CCOCC1
 : /	3%	-18%	-16%	12%	/	0%	/
> CC(C)c1ccccc1NC(=O)COC(=O)Cc1c[nH]c2ccccc12
 : -2.1%	2%	-11%	0%	-33%	7%	5%	-15%
> Cn1c(SCC(=O)N2CC(=O)Nc3ccccc32)nnc1C(F)(F)F
 : /	2%	-1%	-1%	26%	/	-2%	/
> C=CCn1c(COc2cccc(C)c2)nnc1SCC(=O)NC(=O)NCc1ccco1
 : -0.9%	-3%	/	2%	-3%&1%	?	-4%	9%
> CNc1cc(CSc2ccc(Cl)cc2)nc(C)n1
 : /	5%	33%[activator]	-17%	-7%[46.1 µM]	/	3%	/
> Cc1cccc(C)c1NC(=O)c1c(C)nn(-c2ccccc2)c1Cl
 : -0.6%	-15%	-2%	-8%	-10%	-3%	0%	-6%
> CN1C(=O)CC(N2CCC(c3nc4ccccc4[nH]3)CC2)C1=O (stereo not drawn)
 : 0.0%	-16%	3%	/	/	-6%	2%	6%
> COc1ccc(/C=C/C(=O)OCC(=O)N(C)CC(=O)Nc2ccc(C)cc2)c(OC)c1
 : /	13%	37%[activator]	25%	?	/	-9%	/
> COc1cccc(CC(=O)Nc2ccc3nc(C)sc3c2)c1
 : -3.1%	-19%	37%[activator]	3%	?	18%	-87%	-28%
> Cc1cccc(N(CC(=O)NCC2CCCO2)C(=O)CCC(=O)Nc2nccs2)c1 (stereo not drawn)
 : /	-6%	1%	3%	-26%[46.1 µM]	/	2%	1%
> COc1ccc(OC)c(C2Nc3c(C)cc(C)cc3-c3cc(C)nn32)c1 (stereo not drawn)
 : -15%	/	-20%	1%[46.1 µM]	-4%[46.1 µM]	?	/	/
> CC(C)CC(=O)NCC1(N(C)C)CCCCC1
 : -1.0%	/	-29%	5%[46.1 µM]	-26%[46.1 µM]	-8%	/	/
> O=C(Nc1ccccc1N1CCCCC1)c1ncoc1-c1ccc(F)cc1
 : 3.4%	-4%	?	5%	?	?	-1%	-5%
> O=C1NC(=O)c2cc([N+](=O)[O-])cc3cccc1c23
 : /	-12%	-28%	0%	22%	/	/	1%
> Cc1cccc2c1ncc1c(=O)n(-c3ccccc3)[nH]c12
 : /	11%	64%[activator]	/	/	/	0%	2%
> CCOC(=O)C1CCN(c2ncnc3c2c(-c2ccccc2)cn3-c2ccc(C)cc2)CC1
 : /	4%	?	-1%	?	/	1%	/
> CN(C)C(=O)CCC(=O)N1CCCC(C(=O)c2ccc(C(F)(F)F)cc2)C1 (stereo not drawn)
 : /	22%	14%	?	-4%[46.1 µM]	/	?	4%
> CC1CCN(S(=O)(=O)CCNC(=O)c2ccc(F)cc2)CC1
 : /	-8%	0%	17%	1%[46.1 µM]	/	1%	/
> COC(=O)c1cc2sc(Cl)cc2n1Cc1nc(-c2ccccc2)oc1C
 : 7.5%	0%	-3%	/	/	0%	-2%	7%
> Cc1cc[n+](-c2[nH]c(=O)sc2/C=N/NC([S-])=Nc2ccccc2)cc1
 : -13%	?	-11%	5%	?	-5%	-72%	-6%
> CC(C)(C)NC(=O)CN(C(=O)CNS(=O)(=O)c1ccccc1)c1ccc2c(c1)OCCO2
 : 3.8%	-2%	9%	-3%	3%	7%	4%	5%
> CN1/C(=C/C2CC(=O)N(c3cccc4ccccc34)C2=O)C(C)(C)c2ccccc21 (stereo not drawn)
 : -5.4%	22%	-14%	-4%	-15%	?	-1%	17%
> COc1ccc(-c2cc(C(=O)N3CCOCC3)c3cc(C)ccc3n2)cc1
 : -15%	-11%	0%	?	-7%	?	-5%	-32%
> COc1cccc(N/C=C/C(=O)c2ccc(Br)cc2)c1
 : /	9%	14%	?	?	/	/	/
> O=C(CCCn1c(=O)[nH]c2ccccc2c1=O)NCCSCc1ccccc1
 : /	-19%	-20%	-12%	-1%[46.1 µM]	/	4%	/
> O=C(NCc1cccs1)c1nc2ncccn2n1
 : 3.3%	9%	-8%	-7%	4%	6%	/	8%
> CCc1nnc(NC(=O)C2CCN(C(=O)c3ccccc3C)CC2)s1
 : /	-27%	0%	-9%	4%	/	-2%	/
> O=C1c2ccccc2C(=O)N1CCOCCN1C(=O)c2ccccc2C1=O
 : 2.0%	-19%	-24%	-16%	14%	9%	5%	-1%
> Nc1ccc(S(=O)(=O)c2ccc(N)c(N)c2)cc1
 : /	7%	5%	9%[46.1 µM]	-13%	/	0%	/
> CC12CCC(=O)N1C(C(=O)Nc1ccccc1N1CCCCC1)CS2 (stereo not drawn)
 : /	4%	11%	1%	-8%	/	-2%	/
> Cc1ccc2c(c1)Sc1c(ccc3ccccc13)N2
 : /	-5%	19%	/	/	/	-1%	8%
> Cn1ccc(C(=O)Nc2sc3c(c2C(N)=O)CCCCC3)n1
 : /	-23%	26%	?	?	/	?	-3%
> O=C(N/N=C/c1c(O)n(Cc2ccc(F)cc2)c(=O)[nH]c1=O)c1ccccc1
 : /	3%	-4%	5%	?	/	0%	8%
> Cc1cc2nc(-c3ccc(OCc4ccccc4Cl)cc3)cc(C(F)(F)F)n2n1
 : -0.8%	/	-1%	21%[46.1 µM]	-19%[46.1 µM]	0%	/	/
> COc1cc(C(=O)Nc2ccc(C(=O)NCC3CCCO3)cc2)cc(OC)c1OC (stereo not drawn)
 : /	-7%	1%	/	/	/	-3%	-5%
> CCN1CCN(Cc2ccc(NC(=O)c3cc(NC(=O)c4ccno4)cc(OC)c3)cc2C(F)(F)F)CC1
 : /	5%&-3%	-13%&-21%	/	/	/	-2%	-1%
> Cc1ccnc(NC(c2ccccc2O)c2oc(CO)cc(=O)c2O)c1 (stereo not drawn)
 : /	-14%	13%	/	/	/	?	2%
> O=C(COc1ccc(Cl)cc1Br)NNC(=O)C(=O)N1CCCCC1
 : 0.7%	-12%	7%	7%	17%	4%	1%	15%
> CC(N=C1NS(=O)(=O)c2ccccc21)C(=O)NCc1ccc(F)cc1 (stereo not drawn)
 : /	1%	-4%	4%	14%	/	4%	/
> Fc1ccc(-n2ncc3c(N4CCC(Cc5ccccc5)CC4)ncnc32)cc1
 : -0.2%	/	6%	?	/	7%	/	/
> O=C(/C=C/c1cccs1)N1CCN(c2ccc(O)cc2)CC1
 : /	137%	47%[activator]	?	?	/	-1%	/
> O=C(NCCc1ccccc1)C(=O)NCC1OCCN1S(=O)(=O)c1ccc(Br)cc1 (stereo not drawn)
 : /	-3%	?	/	/	/	-4%	11%
> CCOc1ccccc1CNC(=O)c1cccc(NC(=O)c2nsc3ccccc23)c1
 : -1.8%	/	23%	1%[46.1 µM]	/	?	/	/
> CCOC(=O)c1[nH]c(C)c(CN(CCc2ccc(OC)c(OC)c2)C(=O)CCCC(=O)O)c1C
 : 1.1%	-8%	1%	-4%	-4%	28%	3%	8%
> O=C(NNc1cc(C(F)(F)F)nc2ccccc12)Nc1cccc(Cl)c1
 : /	-7%	-8%	?	?	/	-6%	9%
> CCOCC(=O)Nc1cc([N+](=O)[O-])ccc1C
 : -3.2%	36%	-13%	8%	24%	-7%	-4%	8%
> Cc1ccccc1NCc1nc2ccccc2n1CCOc1ccccc1
 : -7.5%	/	41%[activator]	?	?	-14%	/	/
> O=C1CC(=O)Nc2cc(S(=O)(=O)Nc3cccc(Br)c3)ccc2N1
 : -2.4%	/	-5%	3%[46.1 µM]	/	-5%	/	/
> CC1CCOC2(O1)C(=O)N(CN1CCN(c3ccccc3F)CC1)c1ccccc12 (stereo not drawn)
 : 2.4%	8%	-9%	-1%	-5%	9%	-3%	-3%
> O=C1C(Cl)=C(Nc2ccc3cn[nH]c3c2)C(=O)c2ccccc21
 : /	32µM*	20µM*	3.5µM*	?	/	-5%	-39%
> Cc1ccsc1CN(C)CC(=O)Nc1ccccc1C(=O)NC1CC1
 : /	-11%	-20%	3%	-17%	/	3%	/

Part of the list above in order of number of heavy atoms, high to low:
Order of values: Cruzain Triton	RE007 growth inh	2A StopGo	Lassa entry inh	MARV entry inh	Cruzain noTriton	SARS PLpro yeast	NS1 function inh
> O=C(N/N=C/c1c(O)n(Cc2ccc(F)cc2)c(=O)[nH]c1=O)c1ccccc1
 : /	3%	-4%	5%	?	/	0%	8%
> O=C(NNc1cc(C(F)(F)F)nc2ccccc12)Nc1cccc(Cl)c1
 : /	-7%	-8%	?	?	/	-6%	9%
> O=C1CC(=O)Nc2cc(S(=O)(=O)Nc3cccc(Br)c3)ccc2N1
 : -2.4%	/	-5%	3%[46.1 µM]	/	-5%	/	/
